NPYLR7 agonist – agonists of mosquito NPYLR7 receptor, primary screen, cell-based, Aedes aegypti, calcium fluorescence, mosquito biting behavior. Aedes aegypti neuropeptide Y-like receptor 7 (NPYLR7). HEK293T NPYLR7/Galpha15, GCaMP6s calcium fluorescence. activation, % at 10 µM. 270,000 tested, 0.15% active; in the data active = activation above about 40%;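 also: 0% = vehicle and 100% = reference agonist at the receptor; some compounds past the cut are filed as inactive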
NPYLR7 agonist max-min – also measured in NPYLR7 agonist; calls as there; activation, %; measured here: Max-Min RFU normalised activation; some inactives read as strong as hits;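 span of the calcium signal over five minutes; 0% = vehicle and 100% = native peptide agonist; compound fluorescence can raise it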
* marks the source's active call; other numbers are inactive results; & = joins results of further samples. This is a subset. The share of hits here may be higher or lower than overall.

SMILES | NPYLR7 agonist | NPYLR7 agonist max-min
Cc1cccc(NC(=O)c2c(NC(=O)Cc3ccccc3)sc3c2CCCC3)c1 | -14 | -20
FC(F)Sc1ccc(NC(=S)NN2CCOCC2)cc1 | 0 | 0
Cc1csc(SCC(=O)N2CCCC(N3CCN(c4ccccc4C)CC3)C2)n1 (stereo not drawn) | 5&-1 | 2&-4
Cc1ccc(C(=O)NNC(=O)Cc2ccsc2)c(C)c1 | 2 | -8
Nc1nc(SCC(=O)N2CCc3ccccc32)[nH]c(=O)c1NC(=O)c1ccccc1 | -2 | -8
C=CCNC(=O)CSc1ncnc2c1nnn2CC | 0 | 32
CN(C)S(=O)(=O)NC1CCCc2cc(OC(F)F)ccc21 (stereo not drawn) | -1 | -1
O=C1C(=Cc2c(NCCCO)nc3ccccn3c2=O)SC(=S)N1C1CCCCC1 | 3 | 5
Cc1ccc(CNC(=O)C(C)NC(=O)c2ccc(Br)cc2)cc1F (stereo not drawn) | 3 | 4
OCC(F)(F)C(F)(F)C(F)(F)C(F)(F)C(F)(F)CO | -14 | -19
CNCc1nncn1-c1cccc(C(C)=O)c1 | 27 | 20
Cc1ncc(-c2c(-c3ccccc3)ncn2CCCOc2cccnc2)[nH]1 | 26 | 10
O=C1CCCC2=C1C(c1ccc(Cl)cc1)NC(=S)N2 (stereo not drawn) | 4 | -8
CC(NC(=O)c1cc(NC(=O)C23CC4CC(CC(C4)C2)C3)ccc1N1CCCC1)c1ccccc1 (stereo not drawn) | -2 | 6
CN(C)Cc1c(O)ccc2oc(Cc3ccccc3)cc12 | -1 | -3
CCOc1cc(CNc2nn[nH]n2)cc(Cl)c1OCc1ccccc1F | -10 | -14
Oc1ccc(C2=Nn3c(nnc3-c3ccccc3Br)SC2)cc1O | 2 | 1
O=C(c1cn(Cc2ccc(Cl)cc2)nn1)N1CCC(N2CCSCC2)CC1 | 5 | 1
CCCCn1c(=O)c(C#N)cc2c(=O)n3ccccc3nc21 | 3 | 1
CC(C)c1ccc(CN(C)CCCNS(C)(=O)=O)cc1 | 6 | 3

Quoted at random: seven compounds from above, in no set order.
SMILES | NPYLR7 agonist | NPYLR7 agonist max-min
Cc1ccc(C(=O)NNC(=O)Cc2ccsc2)c(C)c1 | 2 | -8
Oc1ccc(C2=Nn3c(nnc3-c3ccccc3Br)SC2)cc1O | 2 | 1
Nc1nc(SCC(=O)N2CCc3ccccc32)[nH]c(=O)c1NC(=O)c1ccccc1 | -2 | -8
Cc1ccc(CNC(=O)C(C)NC(=O)c2ccc(Br)cc2)cc1F (stereo not drawn) | 3 | 4
CC(NC(=O)c1cc(NC(=O)C23CC4CC(CC(C4)C2)C3)ccc1N1CCCC1)c1ccccc1 (stereo not drawn) | -2 | 6
O=C1C(=Cc2c(NCCCO)nc3ccccn3c2=O)SC(=S)N1C1CCCCC1 | 3 | 5
CCOc1cc(CNc2nn[nH]n2)cc(Cl)c1OCc1ccccc1F | -10 | -14

6 neighbouring entries out of the list so far, for reference:
SMILES | NPYLR7 agonist | NPYLR7 agonist max-min
Cc1cccc(NC(=O)c2c(NC(=O)Cc3ccccc3)sc3c2CCCC3)c1 | -14 | -20
FC(F)Sc1ccc(NC(=S)NN2CCOCC2)cc1 | 0 | 0
Cc1csc(SCC(=O)N2CCCC(N3CCN(c4ccccc4C)CC3)C2)n1 (stereo not drawn) | 5&-1 | 2&-4
Cc1ccc(C(=O)NNC(=O)Cc2ccsc2)c(C)c1 | 2 | -8
Nc1nc(SCC(=O)N2CCc3ccccc32)[nH]c(=O)c1NC(=O)c1ccccc1 | -2 | -8
C=CCNC(=O)CSc1ncnc2c1nnn2CC | 0 | 32

Other structures follow.
SMILES | NPYLR7 agonist | NPYLR7 agonist max-min
CC1Cc2ccccc2N1C(=O)C1CCCCC1C(N)=O (stereo not drawn) | -2 | -1
O=C(NCCNc1cccnc1)c1ccc(Cl)cn1 | 7 | 5
CC(C)c1cc(C(=O)N(Cc2ccccn2)CC2CCCO2)nc2ncnn12 (stereo not drawn) | 0 | -3
COc1ccc(N=Cc2nc(-c3cccc4ccccc34)oc2O)cc1Cl | -4 | -7
CNS(=O)(=O)c1cccc(C(=O)N2CCc3ccccc3C2)c1 | -3 | -3
O=C(C1CCCCC1)N1CCN(c2ncnc3c2nnn3Cc2ccccc2)CC1 | -6 | -14
Cc1cc(C(F)(F)F)nn1CC(=O)Nc1cnc2ccccc2c1 | -5 | -8
COC(=O)CC(NS(=O)(=O)c1ccc(Cl)c2ncccc12)C1CC1 (stereo not drawn) | 3 | 0
O=C1NC2(CCN(C(=O)COc3ccccc3)CC2)Nc2cc(F)c(F)cc21 | 6 | 28
CCn1ccc(CNC(=S)NCCOC)n1 | -1 | -5
CN(C)c1cccc(C(=O)N2CCC(CCC(=O)NCC3CCCO3)CC2)c1 (stereo not drawn) | 5 | 1
CN(CC(=O)c1ccc(O)cc1)C(=O)c1cccc(N2CCOCC2)c1 | -5 | -6
CS(=O)(=O)Oc1ccc(CN(Cc2ccccc2)C(=O)c2ccc(-c3ccccc3)cc2)cc1 | 19 | 15
Cc1cc2nnc(SCC(=O)N(CCC#N)c3ccc(F)cc3)n2c2ccccc12 | -4 | -9
COc1ccccc1NC(=O)c1nnn(Cc2nc(-c3ccc(C)cc3)oc2C)c1C | 0 | -6
CC(=O)c1cccc(NC(=O)N2CCC(Cc3ccc4c(c3)OCO4)CC2)c1 | 2 | 13
CC(c1ccc(-c2ccc(O)c(-c3ccno3)c2)cc1)N1CCOCC1 (stereo not drawn) | 18 | 10
O=C(NCC1Cc2cc(F)ccc2O1)Nc1cccc(C(=O)NCC2Cc3cc(F)ccc3O2)c1 (stereo not drawn) | 15 | 23
CCn1ncc(/C=N\NC(=O)COc2cc(C)cc(C)c2)c1C | 5 | 7
CCC(Oc1ccccc1Cl)C(=O)Nc1nonc1C (stereo not drawn) | -21 | -23
CCOc1ccc(NC(=O)CCCn2nc(-c3ccco3)ccc2=O)cc1 | 2 | 3
COCCOC(=O)C1=C(C)N(C)C(=O)NC1c1cc(Br)c(O)c(OC)c1 (stereo not drawn) | -1 | -8
CCc1nn(CC(=O)NCCC(C)C)c(=O)c2cc3occc3n12 | 1 | -1
COC(=O)c1ccccc1NC(=O)Cn1ncn2nc3c(c2c1=O)CCCC3 | 14 | 8
C#CCn1c(=NC(=O)c2ccnn2CC)sc2cc(Cl)ccc21 | 4 | 6
CC1CC(C)CN(C(=O)Nc2c[nH]c3ccccc23)C1 (stereo not drawn) | -2 | -9
CN1CCN(c2onc(-c3ccc(F)cc3)c2CN(CC2CCCO2)C(=O)c2cccs2)CC1 (stereo not drawn) | -3 | -3
CCc1cc2c(=O)n(NC(=O)c3cnccn3)cnc2s1 | 5 | 10
CC1CN(C(=O)/C=C/c2ccccc2)c2ccccc2NC1=O (stereo not drawn) | 3 | 2
Cc1ccccc1C1C(=O)CCC1=O | -5 | -6
N#CCOc1ccccc1C=C1C(=O)NC(=S)NC1=O | 2 | -6
CC(=O)NC(CCS(C)(=O)=O)C(=O)Nc1nc(C)cs1 (stereo not drawn) | 5 | 0
COCc1ccccc1C(=O)NC1CCSc2ccc(Cl)cc21 (stereo not drawn) | 1 | 0
CCN(CC(C)C#N)C(=O)Nc1ccc(-c2csnn2)cc1 (stereo not drawn) | 6 | 4
O=C1NC(=Nc2ccccc2)c2ccccc21 | 4 | 2
Nc1nc(NC2CC2)cc(N2CCN(Cc3ccc(F)cc3)C(=O)C2)n1 | 4 | 0
COc1ccc(S(=O)(=O)N2CCC3(CCNCC3)C2)cc1F | 0 | -1
CC(=O)OCCSc1cccc2c(SCCOC(C)=O)cccc12 | 1 | 4
CC1(C(=O)NCCc2ccccc2)CCN1Cc1ccc(-c2ccccn2)cc1 (stereo not drawn) | 8 | 1
COC(=O)/C(=C\Nc1ccc(O)cc1)[N+](=O)[O-] | -22 | -30
CC(=O)Nc1ccc2nc(CN3CCCN(C(=O)C4CCC4)CC3)ccc2c1 | -3 | -2
CCN(CC)CCOCCOC(=O)N1CCC2(CC1)C(=O)NCN2c1ccccc1 | 27 | 22
Cc1ccc(NC(=O)c2cc3n(n2)CCN(Cc2c(F)cccc2Cl)C3=O)cc1 | 0 | 8
Cc1ccc(C(=O)NCc2ccc(C(=O)N3CCOCC3)cc2)c(C)c1 | 2 | 0
COCCNC1CCS(=O)(=O)C1 (stereo not drawn) | 16 | 13
CCOC(=O)c1cc(-c2ccc(F)cc2)n(C2CCN(C(=O)CCC(=O)OC)CC2)n1 | 3 | 2
Cc1nn(C)cc1C(C)NC1CCN(c2ccc(C(=O)NC3CCCC3)cc2)CC1 (stereo not drawn) | 7 | 3
COc1cccc(C(=O)N(Cc2nccn2Cc2cccc(C(F)(F)F)c2)CC2CC2)c1 | 1 | 10
Cc1cc(F)ccc1S(=O)(=O)NCC(C)N1CCCC(C)C1 (stereo not drawn) | 8 | 8
Cc1ccc(-c2nc(C(=O)NC3CCCC3)cs2)cc1 | 2 | 0
Later entries
SMILES | NPYLR7 agonist | NPYLR7 agonist max-min
CNS(=O)(=O)c1ccc(CCc2nc(C)nn2-c2ccc(F)cc2)cc1 | 0 | 6
C=CCOC1CCCN(C(=O)c2ccccc2Cl)C1 (stereo not drawn) | -7 | -1
Cc1ccc(NC2CCCN(C(=O)CCC(=O)c3ccccc3)C2)cc1C (stereo not drawn) | 3 | 1
CCCCOc1ccc(S(=O)(=O)NC(=O)C2(C)CCN2C(=O)Cc2ccccc2)cc1 (stereo not drawn) | 3 | 1
Cc1ccc(O)c(C(=O)OCC(=O)N2CCC(C(=O)Nc3ccccc3)CC2)c1 | 4 | 0
CSc1nc(NCCCCN)c2sc3c(c2n1)CCCC3 | -2 | 26
CNC(=O)CN1CCN(C(=O)C2CCCN2C2=NS(=O)(=O)c3ccccc32)CC1 (stereo not drawn) | 3 | 0
CN(Cc1ccc(F)cc1)c1ncnc2cc(-c3ccc(F)cc3)sc12 | 5 | 11
CC(=O)NN(O)C1N(C)C(=O)N(Cc2ccccc2)C1(C)C (stereo not drawn) | 0 | 6
CC1(C(=O)Nc2ccc(Cl)c(Cl)c2)CCN1C(=O)CCC1CCCC1 (stereo not drawn) | 7 | 3

A few values from the results shown:
CSc1nc(NCCCCN)c2sc3c(c2n1)CCCC3 | NPYLR7 agonist = -2
Cc1ccc(O)c(C(=O)OCC(=O)N2CCC(C(=O)Nc3ccccc3)CC2)c1 | NPYLR7 agonist max-min = 0

The list continues.
SMILES | NPYLR7 agonist | NPYLR7 agonist max-min
CCOC(=O)C1CCCN(C(=O)c2cnn(C)c2-c2ccccc2)C1 (stereo not drawn) | 2 | 11
Cc1cc(F)ccc1Oc1cc(N2CCN(CCN3CCOCC3)CC2)ncn1 | -9 | -4
C=CCSc1nc2c(c(=O)[nH]c(=O)n2C)n1Cc1ccccc1Cl | -1 | -5
CCCCN1C=NS(=O)(=O)c2ccccc21 | 1 | -2
COc1ccc(C2CC(c3ccc(OC)c(OC)c3)=Nc3ncnn32)c(OC)c1 (stereo not drawn) | 5&1 | 10&1
COc1cccc(-c2cc(C(=O)NC(C)CCc3ccccc3)n(-c3ccccc3)n2)c1 (stereo not drawn) | -3 | 4
O=C(NC1Cc2ccccc2C1)c1cc(COc2cccc(C(F)(F)F)c2)on1 | -5 | -5
CN1CCN(c2ccc(Cl)cc2NC(=O)c2cccc(S(=O)(=O)N3CCCC3)c2)CC1 | -1 | -1
Cc1cc(C)n(-c2cc(NCCNS(=O)(=O)c3ccc(Cl)c(Cl)c3)nc(C)n2)n1 | -5 | -10
Cc1ccc(OC(C)(C)C(=O)N2CCN(CC(=O)N3CCCC3)CC2)c2c1CCC2 | 0 | -1
CC(C)C1CCN(C(=O)NCc2ccccc2CO)CC1 | -2 | -4
CC(=O)CC1(O)C(=O)N(Cc2ccccc2Cl)c2ccc(Br)cc21 (stereo not drawn) | 3 | 10
CCSC1CCC(NC(=O)N(C)C(C)c2ccco2)C1 (stereo not drawn) | 2 | -1
CC(=O)N1CCN=C1SCc1cccc(C)c1 | 3 | 1
COc1ccc(C(C)=O)cc1N1C(=O)C2C(C1=O)C1C=CC2C12CC2 (stereo not drawn) | -2 | -2
Cc1ccccc1N1CCN(S(=O)(=O)c2cccc3ccccc23)CC1 | 0 | -6
CN(Cc1noc(C2CC2)n1)C(=O)Nc1nc(-c2ccccc2)ns1 | -1 | -8
Cc1ccc2oc(-c3ccc(C)c(NC(=O)c4ccccc4C)c3)nc2c1 | 2 | 0
O=C(NS(=O)(=O)c1ccc(Cl)cn1)C1C2CCCCC21 (stereo not drawn) | 1&-1 | 0
CCCc1cc(=O)[nH]c(-n2nc(C)cc2NC(=O)c2cc(=O)c3ccccc3o2)n1 | 2 | -2
CC(Oc1ccccc1)C(=O)Nc1n[nH]c(-c2ccccc2)n1 (stereo not drawn) | 1 | 8
COc1ccc(NC(=O)N2CCC3(CC2)SCCN3C(=O)c2ccc(C(C)(C)C)cc2)cc1 | 0 | 8
Cc1ccc(C)c(-c2cc3c4nnc(CCC(=O)NCCc5ccc(Cl)cc5)n4ccn3n2)c1 | -3 | -4
O=C(CSc1nnnn1-c1ccccc1)NCCc1ccccc1F | 13 | 5
COC(=O)c1cccc(N2C(=O)/C(=C/c3ccc(-c4ccc(Cl)c(Cl)c4)o3)C=C2c2ccccc2)c1 | -1 | 5
Cc1ccccc1Cn1c(C)c(C(=O)NCC(C)C)sc1=O | -5 | -7
Cc1ccc(OCc2nc(C)c(C(=O)OC(C)C(N)=O)s2)cc1 (stereo not drawn) | 4 | 0
CCc1cccc2c(C(CC(=O)O)c3cccc(F)c3)c[nH]c12 (stereo not drawn) | -4 | -4
Cc1cc(C)cc(N2C(=O)CSC2c2cccc(NC(=O)COCc3ccccc3)c2)c1 (stereo not drawn) | -2 | 2
COCCN(CC(=O)N(CCc1c[nH]c2ccccc12)Cc1ccc(OC)c(OC)c1)C(=O)COc1ccccc1 | -4 | 4
CCOC(=O)c1nn(-c2ccc(C(F)(F)F)cc2)c(=O)c2c(NC(=O)c3ccccc3)scc12 | 0 | 1
